# PGE2 EP2 inh: human EP2 receptor antagonists, primary screen, TR-FRET cAMP, C6 glioma cells; actives 0.52% (n = 260,000); inhibition, % at 25 µM; Prostaglandin E2 receptor EP2 subtype (Homo sapiens), P43116; C6 glioma cells expressing human EP2; cells stimulated with saturating PGE2;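 active = percent inhibition above 40 after rounding to a whole number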;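 note: rat C6 glioma host cells with rolipram phosphodiesterase inhibitor present; the protocol text gives 20 µM as final concentration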
# Hck Nef HTS: inhibitors of Nef-activated human Hck kinase, primary screen, biochemical, Z-Lyte FRET, 384-well, Hck-YEEI. Tyrosine-protein kinase HCK (Homo sapiens), P08631. Recombinant Hck-YEEI plus Nef, Z-Lyte FRET kinase assay. inhibition, % at 20 µM. actives 0.68% (n = 220,000). AID 463187, 2010;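 active = Hck-Nef kinase inhibition above about 50%, limit read from the data; inactive = inhibition below that limit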;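 note: 0% = DMSO with Hck plus Nef and 100% = Hck alone without Nef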
# TNF necrop inh: inhibitors of TNF-alpha triggered necroptosis, primary screen, cell-based, Jurkat FADD-/-, single concentration. actives 0.068% (n = 220,000). AID 463075, 2010. activation (protection from cell death), % at 10 µM. Jurkat FADD-/- TNF necroptosis rescue, ATP luminescence, 24 h; 0 = TNF only, 100 = no-TNF cells;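 active = activation, meaning protection from cell death, of at least 50% relative to plate controls; inactive = activation below 50%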;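 note: necroptosis triggered by 40 ng/mL TNF-alpha added together with compound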
# EP2 mod: EP2 receptor modulators, cAMP readout, primary screen, cell-based, HTRF cAMP, PGE2 stimulation. EP2-expressing cells, cAMP HTRF FRET, PGE2 co-stimulation. actives 0.83% (n = 260,000). Prostaglandin E2 receptor EP2 subtype (Homo sapiens), P43116. induction, % at 25 µM;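 active = compounds whose cAMP rise, as percent of the full-agonist control response, exceeds 60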;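 note: rat C6 glioma line stably carrying human EP2 under a CMV promoter; the protocol text gives 20 µM as final concentration; 100% = response of wells given 1 µM PGE2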
# PERK inhibitor: block of dimerizer-induced PERK translation repression, primary screen, PERK inhibitor project, CHO PERK-DD cells, SEAP luminescence, HTS; inhibition, % at 5.6 µM; CHO PERK-DD fusion, SEAP luminescence translation reporter; actives 0.17% (n = 220,000); Eukaryotic translation initiation factor 2-alpha kinase 3 (Homo sapiens), Q9NZJ5;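 active = inhibition above the mean inhibition of all tested compounds plus 3 SD, set separately per screening campaign, cut at about 2.9% in these data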;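 note: PERK kinase domain activated by AP20187 dimerizer at 100 nM; 0% = DMSO with dimerizer and 100% = rapamycin at 8.4 µM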
# Target sequence (Q9NZJ5 whole entry, looked up, the tested form may be a part): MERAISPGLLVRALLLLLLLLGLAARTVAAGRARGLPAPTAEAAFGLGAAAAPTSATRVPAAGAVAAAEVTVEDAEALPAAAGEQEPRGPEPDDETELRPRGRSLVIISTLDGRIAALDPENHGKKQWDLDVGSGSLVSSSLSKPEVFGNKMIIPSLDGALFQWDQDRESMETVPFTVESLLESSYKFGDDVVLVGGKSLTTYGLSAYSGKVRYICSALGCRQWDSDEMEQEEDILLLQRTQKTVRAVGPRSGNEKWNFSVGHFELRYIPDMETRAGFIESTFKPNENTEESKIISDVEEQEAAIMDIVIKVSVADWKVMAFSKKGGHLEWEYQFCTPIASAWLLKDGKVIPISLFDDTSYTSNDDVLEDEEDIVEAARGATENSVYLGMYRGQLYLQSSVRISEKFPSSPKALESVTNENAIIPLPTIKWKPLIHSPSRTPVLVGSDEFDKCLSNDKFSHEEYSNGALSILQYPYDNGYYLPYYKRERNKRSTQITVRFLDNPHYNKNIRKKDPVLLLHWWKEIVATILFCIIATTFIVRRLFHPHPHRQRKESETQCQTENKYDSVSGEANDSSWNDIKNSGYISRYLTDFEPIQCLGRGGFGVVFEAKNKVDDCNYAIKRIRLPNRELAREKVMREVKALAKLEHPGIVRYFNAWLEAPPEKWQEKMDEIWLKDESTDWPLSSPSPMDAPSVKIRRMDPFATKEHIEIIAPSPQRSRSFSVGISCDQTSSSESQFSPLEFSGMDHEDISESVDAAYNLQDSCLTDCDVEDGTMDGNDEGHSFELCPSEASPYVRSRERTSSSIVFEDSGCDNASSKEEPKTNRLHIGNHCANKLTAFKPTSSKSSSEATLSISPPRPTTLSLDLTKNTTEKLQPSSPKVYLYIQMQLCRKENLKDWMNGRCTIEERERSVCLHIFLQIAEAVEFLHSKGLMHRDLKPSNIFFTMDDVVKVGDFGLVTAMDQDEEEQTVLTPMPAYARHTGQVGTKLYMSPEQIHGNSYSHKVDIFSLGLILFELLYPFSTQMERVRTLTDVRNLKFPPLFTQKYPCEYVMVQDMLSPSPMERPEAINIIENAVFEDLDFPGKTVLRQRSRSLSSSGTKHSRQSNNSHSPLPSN
# RBBP9 inhibitor: human RBBP9 inhibitors, primary screen, biochemical, fluorescence polarization, FP-Rh probe, HTS | inhibition, % at 7.94 µM | actives 0.2% (n = 220,000) | Serine hydrolase RBBP9 (Homo sapiens), O75884 | AID 1515, 2009 | recombinant RBBP9;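 active = inhibition above the campaign mean of all tested compounds plus 3 SD, cut at about 14% in these data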;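 note: plate controls were DMSO wells with RBBP9 for no effect and wells lacking RBBP9 protein for full effect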
#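 System: RBBP9 protein | Quantity: 2.5 µM RBBP9 dispensing solution, before mixing | Reagent: FP-Rh probe, 375 nM dispensing solution | Timing: Enzyme-compound preincubation 30 min, then probe labeling 45 min, 25 °C | Measured by: Fluorescence polarization | Read-out: % inhibition | Replication: One well per compound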
# zVAD death inh: inhibitors of zVAD-triggered necroptosis, primary screen, L929 cells. L929 zVAD necroptosis rescue, ATP luminescence, 24 h; with zVAD 60 µM. viability rescue, % at 10 µM. actives 0.38% (n = 220,000). AID 1377, 2008;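 active = activation, scaled between plate controls, above about 75%, limit read from the data; inactive = activation under that limit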;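 note: 0% = zVAD with DMSO and 100% = DMSO alone without zVAD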
# * hit, by the source's call; x = not tested or not shown.
compound,PGE2 EP2 inh,Hck Nef HTS,TNF necrop inh,EP2 mod,PERK inhibitor,RBBP9 inhibitor,zVAD death inh
Cc1ccc(SCC(=O)Nc2ccc(N3CCN(c4ccccc4)CC3)c(F)c2)cc1,3.0,-0.1,-2.8,3.0,0.9,-3.1,0.8
Nc1c(Cl)ncnc1N1CCOCC1,-1.6,1.0,-2.9,7.0,1.6,-8.5,0.0
CCN(c1ccc(NC(=O)COC(=O)c2ccc(S(=O)(=O)N3CCCC3)cc2)cc1)C(C)C,3.1,2.1,0.8,9.9,1.1,-4.5,0.1
CCNc1nc(NC(C)C)nc(SCCOc2ccc(C)cc2)n1,7.6,-0.4,-0.7,47.9,-0.5,-12.1,0.8
O=C(NCc1ccccc1)c1cnc2n(c1=O)CCS2,9.8,1.1,-0.6,7.5,-0.8,-2.4,0.9
Cc1ccc(Nc2cc(=O)n(C3CCCCC3)c(=O)[nH]2)cc1C,17.6,0.9,1.0,-32.9,-0.4,-6.0,38.9
CCc1cccc(CC)c1NC(=O)CN1CC(C)SC1=NC1CCCCC1 (stereo not drawn),11.6,-0.9,-1.2,28.2,-0.1,-2.8,-0.1
Cc1c(C(=O)O)sc2nc(C)n(C)c(=O)c12,9.4,2.1,0.2,7.0,-1.3,6.5,0.0
O=C(c1cccs1)N1CCN(C(=O)C(c2ccccc2)c2ccccc2)CC1,8.6,1.3,-1.5,-2.9,-0.2,2.3,-0.1
CCOC(=O)Cc1csc(NC(=O)c2c(-c3c(Cl)cccc3Cl)noc2C)n1,-0.5,-1.8,0.9,23.7,-0.7,-6.3,-0.1
CCOc1cc(C)c(Cl)cc1S(=O)(=O)N(C)C,14.2,-1.0,-1.8,27.4,0.8,1.1,0.3
CC(C)CC(=O)NC1(C(F)(F)F)C(=O)N(Cc2ccccc2)C2=C1C(=O)CC(C)(C)C2 (stereo not drawn),11.0,0.7,0.4,11.9,-0.7,-7.3,0.2
Cc1sc(NC(=O)CN2CCOCC2)c(C(=O)c2ccccc2)c1C,0.6,0.9,-3.8,69.0*,-1.1,-5.7,0.1
O=C(Cc1ccccc1)NC(Nc1cccc2ccccc12)C(Cl)(Cl)Cl (stereo not drawn),11.3,-1.3,-2.2,15.0,0.2,-11.2,-0.1
CCCCn1nc2cc(C(=O)NCc3ccccc3)ccc2c1OCC,2.4,2.6,-4.1,5.8,-0.6,-0.8,0.9
O=C(O)CCc1nn2c3ccccc3nc2n(CCN2CCCCC2)c1=O,16.6,0.6,0.9,15.7,1.2,-4.0,0.1
O=C(NC(Cc1c[nH]c2ccccc12)c1nnc2n1CCCCC2)c1ccccc1 (stereo not drawn),7.2,1.0,0.3,2.6,0.8,1.3,0.2
O=C(NC(=S)Nc1ccc(N2CCCCC2)c(Cl)c1)c1ccc2c(c1)OCCO2,x,0.4,-18.2,-13.3,0.6,-2.2,-0.3
COc1ccc(S(=O)(=O)N2Cc3ccccc3CC2C(=O)Nc2nccs2)cc1 (stereo not drawn),4.6,1.0,0.5,-35.1,-0.1,-8.7,0.3
O=C1CSC(c2ccccn2)N1c1ccc2ccccc2c1 (stereo not drawn),6.1,-0.7,-0.7,-3.8,-0.1,-5.3,0.1
O=C1C=CC(=O)N1c1ccc(OC(F)F)cc1,108.6*,4.7,-18.3,-61.9,0.2,-6.1,-0.1
CCNC(=S)NNC(=O)c1cccs1,20.2,-0.1,-0.6,8.8,0.7,-11.7,0.1
CCOC(=O)CSc1nc(-c2ccccc2)nc2ccccc12,5.4,1.4,-0.8,70.2*,2.0,-3.5,-0.1
COc1ccccc1OC(C)C(=O)O (stereo not drawn),4.1,3.0,-0.1,6.3,1.4,-0.3,-0.1
COc1ccc(NC(=O)C(CCS(C)(=O)=O)NC(C)=O)cc1 (stereo not drawn),8.8,3.0,0.3,-1.3,2.2,-1.8,0.1

# A second format for some results above:
# Value order: PGE2 EP2 inh, Hck Nef HTS, TNF necrop inh, EP2 mod, PERK inhibitor, RBBP9 inhibitor, zVAD death inh
Cc1ccc(SCC(=O)Nc2ccc(N3CCN(c4ccccc4)CC3)c(F)c2)cc1
  3.0, -0.1, -2.8, 3.0, 0.9, -3.1, 0.8
Nc1c(Cl)ncnc1N1CCOCC1
  -1.6, 1.0, -2.9, 7.0, 1.6, -8.5, 0.0
CCN(c1ccc(NC(=O)COC(=O)c2ccc(S(=O)(=O)N3CCCC3)cc2)cc1)C(C)C
  3.1, 2.1, 0.8, 9.9, 1.1, -4.5, 0.1
CCNc1nc(NC(C)C)nc(SCCOc2ccc(C)cc2)n1
  7.6, -0.4, -0.7, 47.9, -0.5, -12.1, 0.8
O=C(NCc1ccccc1)c1cnc2n(c1=O)CCS2
  9.8, 1.1, -0.6, 7.5, -0.8, -2.4, 0.9
Cc1ccc(Nc2cc(=O)n(C3CCCCC3)c(=O)[nH]2)cc1C
  17.6, 0.9, 1.0, -32.9, -0.4, -6.0, 38.9
CCc1cccc(CC)c1NC(=O)CN1CC(C)SC1=NC1CCCCC1 (stereo not drawn)
  11.6, -0.9, -1.2, 28.2, -0.1, -2.8, -0.1
Cc1c(C(=O)O)sc2nc(C)n(C)c(=O)c12
  9.4, 2.1, 0.2, 7.0, -1.3, 6.5, 0.0
O=C(c1cccs1)N1CCN(C(=O)C(c2ccccc2)c2ccccc2)CC1
  8.6, 1.3, -1.5, -2.9, -0.2, 2.3, -0.1
CCOC(=O)Cc1csc(NC(=O)c2c(-c3c(Cl)cccc3Cl)noc2C)n1
  -0.5, -1.8, 0.9, 23.7, -0.7, -6.3, -0.1
CCOc1cc(C)c(Cl)cc1S(=O)(=O)N(C)C
  14.2, -1.0, -1.8, 27.4, 0.8, 1.1, 0.3
CC(C)CC(=O)NC1(C(F)(F)F)C(=O)N(Cc2ccccc2)C2=C1C(=O)CC(C)(C)C2 (stereo not drawn)
  11.0, 0.7, 0.4, 11.9, -0.7, -7.3, 0.2
Cc1sc(NC(=O)CN2CCOCC2)c(C(=O)c2ccccc2)c1C
  0.6, 0.9, -3.8, 69.0*, -1.1, -5.7, 0.1

# Screening results (PubChem)

# Only part of the results is shown (hit frequency here may not be typical).
